Screens deposited in PubChem BioAssay by National Center for Advancing Translational Sciences (NCATS).
RE007 growth inh: less growth of the S. pombe RE007 Vpr strain | 360,000 tested, 0.21% active | Potency, µM (titrated, usually from 92.2 µM), without a hit: top-dose activity change, negative = less growth | S. pombe RE007 Vpr strain, BacTiter-Glo ATP luminescence, 24 h; control for the full effect not named in the record; active = well fitted falling curve with a large enough effect; inconclusive = small, poorly fitted or top-dose-only effect; inactive = no such curve, though single readings can be large or run the other way;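 also: % is scaled to controls: 0 for no effect and ±100 for the full control effect; nearly all actives have a fitted effect of over 50% in size; the assay follows cell death caused by Vpr and the record does not say whether a fall means rescue or toxicity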
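Fission yeast strain RE007, carrying one chromosomally integrated HIV-1 vpr copy, was seeded at OD 0.01 in PMG+AL medium with 23 nL pinned compound. After 24 h at 30 °C and 99% humidity, viability was read by BacTiter-Glo luminescence.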
NS1 function inh: blocks influenza NS1 protein function; Potency, µM (top dose mostly 46.1 µM), for the others: top-dose activity, positive = more growth; AID 2326; 270,000 tested, 0.4% active; S. cerevisiae slowed by influenza A NS1, growth recovery by OD600; active means well fitted rising curve with a large enough effect; inconclusive means small, poorly fitted or top-dose-only effect; inactive means no such curve, though single readings can be large or run the other way; also: nearly all actives have a fitted effect of over 50% in size
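Growth recovery, yeast-based: influenza A NS1 expressed in S. cerevisiae causes slow growth, and suppressors are detected by OD600. The parent strain without NS1 is used as positive control.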
StopGo reporter: lowers the luciferase signal of an FMDV 2A StopGo reporter. human cells with a luciferase reporter of 2A StopGo recoding; control for the full effect not named in the record. Potency, µM (doses to about 57.9 µM), for inactives: at the highest dose signal change, negative = less light. 410,000 tested, 1.2% active; active = well fitted falling curve with a large enough effect; inconclusive = small, poorly fitted or top-dose-only effect; inactive = no such curve, though single readings can be large or run the other way; tested in HEK293T cells; also: % is scaled to controls: 0 for no effect and ±100 for the full control effect; nearly all actives have a fitted effect of over 45% in size; luciferase light after 4 h
MARV entry inh: Marburg virus entry inhibition. Marburg virus pseudotyped entry inhibition, cell reporter; control for the full effect not named in the record; about a third of the inactives were read at about 46 µM. Potency, µM (top dose mostly 37.8 µM), for inactives: at the highest dose activity change, negative = inhibition, usual class: inhibitors. 300,000 tested, 1.8% active. AID 540276; active = well fitted inhibition curve with a large enough effect; inconclusive = small, poorly fitted or top-dose-only effect, or effect the other way; inactive = flat fitted curve, though single readings scatter; tested in HEK293 cells; about a fifth of its hits are not listed in these tables; also: % is scaled to controls: 0 for no effect and ±100 for the full control effect; luciferase read-out
LASV entry inh: inhibitors of Lassa virus binding or cell entry; Lassa virus pseudotype entry inhibition, cell reporter; control for the full effect not named in the record; Potency, µM (series often up to 37.9 µM), for the others: at the highest dose activity change, negative = inhibition, actives largely listed as inhibitors; 300,000 tested, 1.2% active; AID 540256; active means well fitted inhibition curve with a large enough effect; inconclusive means small, poorly fitted or top-dose-only effect, or effect the other way; inactive means flat fitted curve, though single readings scatter; tested in HEK293 cells; also: % is scaled to controls: 0 for no effect and ±100 for the full control effect; nearly all actives have a fitted effect of over 50% in size; luciferase read-out
Cruzain noTriton: cruzain (T. cruzi) inhibition without detergent; P25779; purified cruzain, Z-FR-AMC fluorescence, no detergent; Potency, µM, for inactives: max response, negative = inhibition, usual class: inhibitors; 200,000 tested, 2.3% active;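 also: plate controls were enzyme without inhibitor for no effect and buffer without enzyme for full effect; nearly all actives have a fitted effect of over 40% in size; top concentration of the series not given in the record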
Target sequence (P25779 123-467 limits assumed): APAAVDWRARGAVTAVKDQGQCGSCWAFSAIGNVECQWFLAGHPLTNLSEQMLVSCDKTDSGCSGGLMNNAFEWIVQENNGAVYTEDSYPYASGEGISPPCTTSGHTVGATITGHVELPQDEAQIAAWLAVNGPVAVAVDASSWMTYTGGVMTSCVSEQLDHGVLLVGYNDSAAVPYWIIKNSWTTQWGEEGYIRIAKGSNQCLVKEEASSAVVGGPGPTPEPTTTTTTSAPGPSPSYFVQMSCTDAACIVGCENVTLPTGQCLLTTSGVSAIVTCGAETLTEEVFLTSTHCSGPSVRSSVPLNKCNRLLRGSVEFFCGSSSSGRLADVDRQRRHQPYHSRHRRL
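Detergent-free condition (0.00005% Triton X-100) in acetate buffer pH 5.5 with DTT. 1.5 nM enzyme and compound were pre-mixed 15 min, then 2 uM Z-FR-AMC substrate added; reaction progress from fluorescence change between first and third reads (60 s).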
SARS PLP yeast: inhibitors of SARS-CoV papain-like protease in yeast. S. cerevisiae expressing SARS-CoV PLpro, growth rescue; control for the full effect not named in the record. Potency, µM (top dose mostly 32.9 µM), without a hit: at the top dose activity, positive = growth rescue. 330,000 tested, 0.19% active; active means well fitted rising curve with a large enough effect; inconclusive means small, poorly fitted or top-dose-only effect; inactive means no such curve, though single readings can be large or run the other way; also: 0% is about no effect; nearly all actives have a fitted effect of over 55% in size; growth read by luminescence after 48 h
Cruzain Triton: blocks cruzain activity in presence of Triton detergent; P25779; purified cruzain, Z-FR-AMC fluorescence, 0.01% Triton; Potency, µM, for inactives: max response, negative = inhibition, actives largely listed as inhibitors; 200,000 tested, 0.43% active; AID 1478;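 also: plate controls were neutral wells for no effect and buffer without enzyme for full effect; nearly all actives have a fitted effect of over 40% in size; top concentration of the series not given in the record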
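15 min RT preincubation of 1.5 nM cruzain with compound, then 2 uM Z-FR-AMC added; kinetic AMC fluorescence, 60 s delta. Triton X-100 0.01%, pH 5.5.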
An asterisk follows results filed as active; ? = inconclusive; . = no result given; & = joins results of further samples; [ ] = another dose, or the depositor's remark. Unless noted, calls follow the shape of the dose curve; as a rule, active = well fitted curve in the direction sought with a large enough effect; inconclusive = small, poorly fitted or top-dose-only effect, or another doubt; inactive = no such curve, though single readings can be large; an effect the other way counts as inactive or inconclusive. Potency is read from the fitted curve at half-maximal effect.

SMILES	RE007 growth inh	NS1 function inh	StopGo reporter	MARV entry inh	LASV entry inh	Cruzain noTriton	SARS PLP yeast	Cruzain Triton
CCCc1nc2nc(C)c(NS(=O)(=O)c3ccc(C)c(C)c3)c(=O)n2[nH]1	-11%	.	-6%&-12%	16%[46.1 µM]	4%[46.1 µM]	0%	.	1.1%
CCS(=O)(=O)N1Cc2ccccc2CC1C(=O)Nc1nccs1 (stereo not given)	4%	4%	2%	?	?	-5%	-3%	6.7%
C=CCNc1nnc(Cl)c2ccccc12	-5%	-2%	-27%	2%	17%	-2%	-9%	6.5%
COc1ccc(CCNC(=O)C(=O)NCC2OCCN2S(=O)(=O)c2ccc(F)cc2)cc1OC (stereo not given)	1%	-2%	-5%	.	.	.	-1%	.
Cn1c(NC(=O)CCc2ccccc2)cc(=O)n(C)c1=O	14%	-19%	-12%	.	.	3%	-4%	1.3%
CCOC(=O)c1c(C)[nH]c(C)c1C(=O)COC(=O)CCOc1ccccc1OC	22%	-10%	-6%	1%[46.1 µM]	?	26%	-4%	-5.0%
COc1cc(/C=N/NC(=O)c2cc(-c3ccccc3OC(C)C)nc3ccccc23)ccc1O	-5%	?	?	4.6µM*	5.8µM*	3%	-2%	1.4%
CCn1c(=O)n(CC(=O)NCC2CCCO2)c(=O)c2c3c(sc21)COC(C)(C)C3 (stereo not given)	-6%	11%	-9%	.	.	.	9%	.
COc1cccc(NC(=O)c2cncs2)c1	1%	-2%	-1%	.	.	.	0%	.
Cc1ccc(-n2c(/C=C/c3ccc(Br)s3)nc3ccccc3c2=O)cc1C	.	.	-26%	.	?	-9%	.	0.7%
CCc1ccc2nc3sc(C(=O)N4CCc5ccccc54)c(N)c3cc2c1	.	17%	.	12%	10%	25µM*	-5%	-3.0%
Cc1nn(C(C)CC(=O)O)c(C)c1C (stereo not given)	0%	1%	13%	-7%	12%	5%	5%	-0.7%
COC(=O)c1c(NC(=O)C2CC=CCC2C(=O)O)sc(C(N)=O)c1C (stereo not given)	-9%	?	-9%	15%	2%	-18%	9%	-5.4%
CCOc1ccccc1CNCc1cccn1-c1nnc(N2CCN(c3ccccc3)CC2)s1	.	.	?	.	?	1%	.	-3.2%
Cc1ccc(C(=O)c2oc3ccccc3c2NC(=O)c2cc(-c3cc(C)ccc3O)n[nH]2)cc1	-17%	4%	-15%	.	.	.	1%	.
O=C(CCc1nc2sc3c(c2c(=O)[nH]1)CCCC3)NCCc1ccccc1	-2%	.	9%	0%	6%[46.1 µM]	.	4%	.
CCOc1ccc(Br)cc1S(=O)(=O)Nc1ccccc1N1CCOCC1	14%	-31%	65%[activator]	?	-20%	?	-13%	-0.5%
O=c1[nH]c(-[n+]2ccccc2)c(/C=N/NC([S-])=Nc2ccccc2)s1	5%	-6%	-1%	2%	5%	.	-6%	.
COCCNC(=O)c1cc2c(Cl)nc3ccc(C)cc3c2s1	.	.	8%	?	-1%[46.1 µM]	-9%	.	-2.9%
CCOc1ccc(N=C(C)C2=C(O)c3ccccc3C2=O)cc1	-3%	-38%	-35%	?	?	.	0%	.
COc1ccccc1N=NC1C(=O)N(C(N)=S)N=C1C (stereo not given)	?	-35%	2%	5%	2%	.	9%	.
O=C(Nc1nc(-c2cc(Cl)sc2Cl)cs1)c1ccc(Br)s1	-10%	3%	-24%	?	?	7.9µM*	-1%	-7.1%
COc1ccc(CNC(=O)C2CCCN(S(=O)(=O)c3ccc4c(c3)CCCN4C(C)=O)C2)cc1 (stereo not given)	-4%	-23%	?	.	-19%[46.1 µM]	?	-13%	-1.4%
O=S(c1ccccc1)C(c1ccccc1)c1ccccc1 (stereo not given)	4%	.	-20%	0%	-30%	.	.	.
CC(=O)c1ccc(N(C(=O)CNC(=O)c2ccco2)C(C(=O)NC2CCCC2)c2ccncc2)cc1 (stereo not given)	2%	-25%	-6%	-12%[46.1 µM]	3%	.	1%	.
Other records follow.
SMILES	RE007 growth inh	NS1 function inh	StopGo reporter	MARV entry inh	LASV entry inh	Cruzain noTriton	SARS PLP yeast	Cruzain Triton
Cc1ccc(NC(=O)COc2ccc(-n3ccnc3)cc2)cc1Cl	4%	-46%	?	?	0%	3%	-22%	-4.1%
COc1ccc(CC2NCCC3(O)CCCCC23)cc1 (stereo not given)	17%	-6%	-15%	-1%	0%	1%	6%	1.5%
N#C/C(=C\c1cccnc1)c1nc2ccccc2[nH]1	-11%	-4%	66%[activator]	?	-1%	.	0%	.
Cc1ccc(CNS(=O)(=O)c2cc(Br)cc3c2N(C(=O)C2CC2)CC3)cc1	.	.	51%[activator]	4%[46.1 µM]	-16%[46.1 µM]	?	.	-4.0%
CCN(CC)CCn1c(=S)[nH]c2cc(Cl)ccc2c1=O	-7%	-5%	21%	-25%	1%	2%	-2%	2.4%
Cc1ccc(Oc2ccccc2/C=C/C(=O)O)cc1	17%	-4%	12%	-17%	0%	6%	-4%	1.9%
Cc1ccc(-c2nc(C3CCN(S(=O)(=O)c4ccc(C(C)(C)C)cc4)CC3)no2)cc1	9%	7%	-24%	0%	.	?	-6%	0.2%
CCOC(=O)CSc1nc2cc(C(=O)N3CCC(C(N)=O)CC3)ccc2c(=O)n1C1CCCCC1	-25%	.	73%[activator]	?	-29%	.	1%	.
O=C(O)/C=C\C(=O)Nc1cc(O)ccc1[N+](=O)[O-]	9%	0%	-16%	.	.	.	-2%	.
O=C(Nc1cccc(S(=O)(=O)N2CCCCCC2)c1)C1CCC1	-2%	.	-5%	-3%	?	.	3%	.
CCNC(=S)N1CCC(c2nc3ccccc3s2)CC1	3%	3%	.	-22%	7%	2%	-2%	0.4%
CC(=O)N=c1c(C#N)cc2c(=O)n3cccc(C)c3nc2n1CCCOC(C)C	-14%	2%	-17%	0%[46.1 µM]	16%	.	0%	.
CC(=O)c1cccc(NC(=O)c2ccc(OC3CSC3)cc2)c1	-9%	.	-9%	?	12%[46.1 µM]	.	5%	.
CN(C)c1ccc(C(c2ccc(N(C)C)cc2)c2ccc([N+](=O)[O-])cc2)cc1	54%	-18%&12%	-14%	?	-20%[46.1 µM]	-13%	-2%	-3.3%
O=Cc1c(N2CCC3(CC2)OCCO3)nc2ccccn2c1=O	31%	6%	-5%	-6%[46.1 µM]	14%[46.1 µM]	.	-1%	.
COc1cc(/C=N/NC(=O)c2ccccc2)ccc1O	2%	1%	31%[activator]	.	.	.	2%	.
CN(Cc1ccc(C(F)(F)F)cc1)C(=O)c1ccc(Oc2ccccc2)cc1	2%	2%	-28%	.	.	.	0%	.
CCn1c(NCc2c[nH]c3ccccc23)nc2ccccc21	6%	14%	26%	11µM*	-9%	.	.	.
COc1ccc(-c2nc(CCNC(=O)c3ccc(Br)o3)cs2)cc1	8%	-44%	?	.	0%[46.1 µM]	-6%&7%	-38%	-9.3%&-14%
COc1ccc(C2=NN(C(=O)CN3CCCC3)C(c3ccc(OC)cc3)C2)cc1 (stereo not given)	-1%	8%	-2%	?	21%	.	5%	.
O=C(NC(=S)Nc1ccc(Oc2ccc(Cl)cc2)cc1)c1ccccc1	6%	14%	-21%	2%	0%	-29%	20%	-0.5%
CN(Cc1ccco1)S(=O)(=O)c1cc(F)ccc1CN1C(=O)c2cccnc2C1=O	-7%	-8%	-14%	.	.	.	-3%	.
CCCCN(CCCC)CCNC(=O)c1cn(C)c2ccc(S(=O)(=O)N(C)C3CCCCC3)cc2c1=O	-14%	-7%	36%[activator]	.	.	.	2%	.
O=[N+]([O-])c1ccc(-c2ccc(/C=N/Nc3nc(N4CCCCC4)nc(N4CCCCC4)n3)o2)cc1	5%	-3%	-9%	29%[46.1 µM]	9%	.	0%	.
C/C(NC(=O)c1ccccc1F)=C1\C(=O)C[C@@H]2[C@H]1C2(C)C	-28%	-23%	28%	?	-21%	-8%	-1%	-5.7%
Later entries:
SMILES	RE007 growth inh	NS1 function inh	StopGo reporter	MARV entry inh	LASV entry inh	Cruzain noTriton	SARS PLP yeast	Cruzain Triton
N#CCCN(Cc1cccs1)C(=O)Nc1ccccc1	11%	6%	7%	0%	?	.	-2%	.
CO/N=C/c1ccc(N2CCOCC2)c([N+](=O)[O-])c1	-11%	.	-4%	3%	?	.	1%	.
O=C(Nc1ccccc1)ON=C1c2ccccc2-c2ccccc21	?	-79%	9%	?	11%	-2%	-14%	-7.2%
O=C1C=C(NNC(=O)c2ccccc2Br)CCC1	-2%	-4%	3%	?	?	3%	14%	-0.8%
N#CCCN(C(=O)COC(=O)c1ccc2c(c1)OCCO2)c1ccccc1	0%	.	-1%	-14%[46.1 µM]	-9%[46.1 µM]	.	0%	.
CC(C)CC(=O)N1CCN(Cc2ccc(C(F)(F)F)cc2)CC1	-1%	-16%	-27%	.	.	.	-15%	.
N=c1c2c(ncn1CCN1CCOCC1)Oc1cc(O)ccc1C2c1ccccc1 (stereo not given)	-7%	-3%	-19%	?	?	.	0%	.
CCS(=O)(=O)c1ccc2oc(=O)c(/C=C(\O)c3ccc(Cl)cc3)nc2c1	-4%	.	-11%	-10%[46.1 µM]	-1%	.	5%	.
CN(CCC#N)C(=O)CC(Cc1ccccc1)C1CCOC(C)(C)C1 (stereo not given)	4%	2%	-3%	.	.	.	0%	.
Nc1ncc(P(=S)(N2CCOCC2)N2CCOCC2)s1	4%	8%	-6%	4%&4%[46.1 µM]	10%	26%	0%	1.0%
O=C(O)Cc1c(C(=O)O)nnn1-c1cccc(C(F)(F)F)c1	-7%	2%	-10%	22%[46.1 µM]	12%[46.1 µM]	.	0%	.
CCc1noc(C)c1C(=O)OC(C)C(=O)Nc1ccccc1OC (stereo not given)	7%	.	-26%	-6%[46.1 µM]	-20%	.	1%	.
CCC(=O)Oc1ccc(C(=O)Nc2cccc(NC(=O)c3ccco3)c2)cc1	7%	-5%	-14%	?	?	.	-2%	.
O=C(Nc1cccc2nsnc12)c1ccc(-c2ccc(Br)cc2)o1	-12%	4%	14%	-28%	-14%	-27%	-7%	1.7%
CC(c1ccccc1)c1nnc(NC(=O)c2ccc3c(c2)OCO3)s1 (stereo not given)	-1%	-6%	0%	.	.	.	1%	.
Cc1[nH]c(=S)c(C#N)c2c1CCCC2	69%	.	1%	9%[46.1 µM]	?	.	5%	.
Cc1ccc(CNCC(O)c2ccccc2)s1 (stereo not given)	-7%	4%	12%	?	18%[46.1 µM]	.	3%	.
COc1ccc(N2C(=O)/C(=C/N(C)C)NC2=S)cc1	-14%	6%	6%	-5%[46.1 µM]	-1%	.	1%	.
